MLL AF4-AF9 inh – blocks AF4 peptide binding to human AF9 | P42568 | AlphaScreen, biotin-AF4 peptide binding to FLAG-AF9 | inhibition, % at 10 µM | hit rate 0.47% among 350,000;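 active means every replicate reaching a set inhibition limit, whatever the replicate mean, cut at about 25% in these data; inconclusive means mean inhibition reaches that limit but some replicates miss it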;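 further: 0% = plate neutral control median and 100% = total signal loss; the record names both 10 and 1 µM as test concentration; the first replicate is given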
Target sequence (P42568 whole entry, looked up): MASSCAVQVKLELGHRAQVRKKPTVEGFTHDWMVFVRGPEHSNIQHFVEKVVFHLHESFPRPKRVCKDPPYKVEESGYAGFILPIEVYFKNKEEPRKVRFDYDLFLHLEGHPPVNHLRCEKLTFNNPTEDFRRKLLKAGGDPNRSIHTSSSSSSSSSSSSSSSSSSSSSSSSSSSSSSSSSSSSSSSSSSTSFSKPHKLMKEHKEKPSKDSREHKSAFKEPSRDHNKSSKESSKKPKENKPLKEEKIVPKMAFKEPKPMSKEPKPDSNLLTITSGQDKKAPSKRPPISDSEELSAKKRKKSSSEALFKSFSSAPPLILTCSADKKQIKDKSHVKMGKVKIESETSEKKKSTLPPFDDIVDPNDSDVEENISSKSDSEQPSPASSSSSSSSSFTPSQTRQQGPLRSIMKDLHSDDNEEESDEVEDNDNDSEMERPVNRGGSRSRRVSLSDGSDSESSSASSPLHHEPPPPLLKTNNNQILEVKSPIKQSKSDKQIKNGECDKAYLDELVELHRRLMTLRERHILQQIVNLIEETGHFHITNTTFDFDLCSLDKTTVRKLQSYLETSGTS
FGF22 binding – binders of recombinant human FGF22 by thermal shift | AID 651658 | hit rate 1.5% among 340,000 | calls only at 9.99 µM | SYPRO orange fluorescence; percent of sucrose octasulfate shift, DMSO zero;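 active means melting point raised past a set limit in the mean and every replicate; inconclusive means no clear call; three in four hits are not shown here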
Ecoli rRNA inh – inhibits bacterial ribosomal RNA function over humanized ribosomes; hit rate 1.6% among 350,000; E. coli WT GFP vs humanized-ribosome RFP mutants, fluorescence, 24 h; active compounds read low; DMSO median 0, no signal -100; GFP signal change (wild-type ribosome), % (concentration not given with the values);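 active means significant combined selectivity score with lowered wild-type GFP, culture density cut under 30%, mutant RFP and density less affected; inactive means any of these conditions unmet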; further: one replicate is shown; some compounds called inactive have numbers as strong as hits
ALR H2O2 inh – inhibitors of human sulfhydryl oxidase ALR; hit rate 3.8% among 290,000; purified ALR, DTT oxidation, H2O2 HRP-luminol luminescence; inhibition, % (no concentration beside the values); P55789; AID 485317;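 active means mean and each replicate at 75% or more; inconclusive means only one of the two met; inactive means neither met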;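 further: stock transfer was 7.5 nL into about 7.5 µL; 0% = neutral wells and 100% = wells with inactivated enzyme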
Vif TR-FRET – HIV-1 Vif–A3G interaction blockers – biochemical, TR-FRET, GST-Vif 1-94, biotin-A3G peptide, dose response retest, primary screen (AID 1117319). inhibition, %, or IC50 in µM where a hit was titrated. hit rate 0.57% among 260,000. TR-FRET GST-Vif / biotin-A3G peptide binding; higher % means a stronger effect; test concentration not given here; strong numbers were not always called active;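 active means above the screen mean plus three standard deviations and confirmed in dose response; inconclusive means results disagree or hit not tested in dose response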;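 further: Vif residues 1-94 fused to GST binding biotinylated APOBEC3G peptide 110-148; 0% = full assay without inhibitor and 100% = GST in place of GST-Vif; retest series ran down from 100 µM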
HNF4A DNA FP – change in binding of human HNF4 alpha to DNA; P41235; HNF4a-FITC DNA binding, fluorescence polarization, 1 h; activity change, % at 10 µM; hit rate 0.3% among 360,000; AID 1224865; in the data active means activity change above about 30%, passing the limit was not always enough;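 further: controls were the assay level and a saturating level of protein; the project sought stronger binding though the title names inhibitors; some compounds called inactive have numbers as strong as hits; positive values seem to mean higher polarization but the record does not say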
Target sequence (P41235 whole entry, looked up): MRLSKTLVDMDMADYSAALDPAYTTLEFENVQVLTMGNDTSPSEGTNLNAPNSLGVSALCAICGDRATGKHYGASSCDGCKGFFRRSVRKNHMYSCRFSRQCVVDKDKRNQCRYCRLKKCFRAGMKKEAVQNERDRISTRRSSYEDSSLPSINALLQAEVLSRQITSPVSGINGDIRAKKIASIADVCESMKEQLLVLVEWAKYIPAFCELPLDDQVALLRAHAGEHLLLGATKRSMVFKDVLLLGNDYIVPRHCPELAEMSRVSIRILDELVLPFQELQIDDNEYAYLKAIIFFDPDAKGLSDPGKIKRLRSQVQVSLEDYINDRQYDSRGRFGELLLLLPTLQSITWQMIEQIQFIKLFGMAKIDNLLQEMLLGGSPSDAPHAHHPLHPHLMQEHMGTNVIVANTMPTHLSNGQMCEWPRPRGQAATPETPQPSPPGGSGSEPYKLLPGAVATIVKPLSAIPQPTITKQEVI
E coli growth – blocks Escherichia coli growth; OD600, 23 h; active compounds read low; OD600 absorbance (concentration not given with the values); hit rate 0.21% among 330,000; AID 1053175;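 active means OD600 absorbance below the run mean of sample wells minus 3.6 SD, in any replicate, cut at about 0.56 in these data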;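 further: stock transfer was 300 nL into about 60 µL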
Ecoli rRNA inh OD600 – second read-out of Ecoli rRNA inh, no call of its own (marks repeat the call); OD600 change, %; measured here: OD600 growth;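 optical density of the mix in the first replicate; 0 = DMSO median and -100 = no signal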
Ecoli rRNA inh RFP – recorded beside Ecoli rRNA inh, whose call it bears; RFP signal change, %; measured here: RFP humanized mutant strains;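 first replicate; 0 = DMSO median and -100 = no signal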
* hit, by the source's call; i = inactive; ? = inconclusive; . = not tested or not shown; & = joins results of further samples.

SMILES	MLL AF4-AF9 inh	FGF22 binding	Ecoli rRNA inh	Ecoli rRNA inh OD600	Ecoli rRNA inh RFP	ALR H2O2 inh	Vif TR-FRET	HNF4A DNA FP	E coli growth
Cc1ccc(C(=O)Nc2cccc(C(F)(F)F)c2)cc1NC(=O)c1cnnc2ccccc12	-1.3&3.9	i	-10&8	7&8	-2.6&-18	-4	-3%	4.8&3.8	0.71
CCNc1c2c3c(cccc3n(C)c1=O)C(=O)c1ccccc1-2	.	.	.	.	.	-9	7%	.	0.74
CCOCc1nnc(NC(=O)c2c(OC)cccc2OC)s1	.	.	.	.	.	-29	2%	-4.7	0.73
Cc1ccc(S(=O)(=O)N(C)C[C@H]2Oc3ccc(NS(=O)(=O)c4ccccc4)cc3C(=O)N([C@@H](C)CO)C[C@H]2C)cc1	-1.4	i	-3	-20	3.0	.	.	.	.
CCN(CC(=O)Nc1ccccc1C(F)(F)F)C(=O)Cn1c(=O)cnc2ccccc21	0.6	i	6	5	-2.1	1	-3%	-4.6	0.64
CC(NC(=O)c1ccco1)C(=O)Nc1nccs1 (stereo not drawn)	0.2	i	20	18	1.7	1	-6%	-5.2	0.66
COC(=O)[C@H](CC(C)C)NC(=O)N1CCCCC1	0.4	i	6	-6	-1.2	-4	1%	-4.5	0.7
CCc1nn(CC(=O)NCCC2=CCCCC2)c(=O)c2cc3cc(F)ccc3n12	-0.3	i	6	5	-2.0	4	-14%	9.6	0.71
CCCNC(=O)[C@H]1[C@H](CO)[C@H]2Cn3c(ccc(-c4ccccc4)c3=O)[C@H]2N1CC1CC1	-0.9	i	-5	-1	0.8	.	.	.	.
COc1ccc(C(=O)Nc2ccnn2C2CCN(C(=O)c3cccnc3)CC2)cc1	-9.6	i	0	4	-1.3	-4	.	5.4	0.63
CC(=O)N1Cc2cc(C(=O)NCC(F)(F)F)nc(-c3cccc(-c4cc5ccccc5o4)c3)c2[C@@H]1CCO	-6.2	i	3	0	-2.7	.	.	-1.2	.
Cc1cc(Cl)c2oc(C(=O)NCC(C)(C)N3CCOCC3)c(C)c2c1	0.2	i	-3	1	8.9	0	.	2.5	0.72
CCCc1cc(=O)oc2cc(C)cc(OCC(=O)NCCCN3CCOCC3)c12	-3.3	i	3	6	0.3	4	2%	1.3	0.69
COc1ccc2c(c1)CCc1cnc(N)nc1-2	0.7	i	-12	-6	4.2	-9	3%	-0.8	0.65
CCN(C(=O)C1=COCCO1)c1nc2c(C)cccc2s1	-4.5	.	2	5	-1.6	0	0%	1.3	0.7
Cc1cc(C)cc(NC(=O)Cc2ccc(S(=O)(=O)N3CCCC3)s2)c1	-0.6	i	-7	-8	8.6	-5	8%	1.4	0.59
O=C(NCc1cn2ccccc2n1)c1ccc2c(c1)OCO2	.	.	.	.	.	11	69%	-0.7	0.73
CC(C)C[C@H]1CN(CCCC[C@@H]2CNC(=O)C(=O)N2Cc2ccccc2)C(=O)C(=O)N1CC1CCCCC1	-0.4	i	-30	-53	7.9	.	.	3.9	.
NC(=O)c1ccc(NC(=O)COC(=O)c2cc(S(=O)(=O)N3CCOCC3)ccc2N2CCCCC2)cc1	7.3	i	-2	-6	-2.1	.	-1%	0.8	0.69
CN(C(=O)C1CCCC1)C1CCS(=O)(=O)C1 (stereo not drawn)	4.7	i	2	4	-0.9	0	-3%	-1.9	0.69
COc1ccc(NC(=O)CN2CCN(CC(=O)Nc3ccccc3OC)CC2)c(OC)c1	-2.7	i	5	2	0.2	.	-5%	0.5	0.69
COc1ccc(NC(=O)Nc2c(C)n(C)n(-c3ccccc3)c2=O)cc1OC	-4.2	i	7	21	2.3	-9	0%	-1.1	0.72
COC(=O)c1ccc(N2CCN(S(=O)(=O)c3ccccc3)CC2)c([N+](=O)[O-])c1	.	.	.	.	.	-10	4%	4.7	0.74
CCc1nnc(NC(=O)c2ccc(Cl)c(S(=O)(=O)N3CCc4ccccc43)c2)s1	.	.	.	.	.	0	0%	1.5	0.77
Cc1ccc(NS(=O)(=O)c2cccc(C(=O)N3CCCCCCC3)c2)cc1	-34	i	-3	-37	-4.7	-3	3%	1.2	0.62
O=C(O)c1ccc2cccnc2n1	.	.	.	.	.	-19	?	-2.4	0.67
COc1ccc(O)c(/C=N/N2CCCCC2)c1	0.6	i	5	-2	3.1	13	-6%	2.8	.
COc1ccc(-n2c(Cc3cccs3)nnc2SCC(=O)Nc2ccc3c(c2)OCCO3)cc1	.	.	.	.	.	0	4%	3.0	0.7
CC(CC(=O)Nc1nncs1)c1ccccc1 (stereo not drawn)	.	.	.	.	.	-10	22%	-0.6	0.66
Nc1nnnn1/N=C/c1ccccn1	-0.9	i	19	16	-7.5	-1	10%	12	.
COc1ccccc1Oc1ccc(N/C=C/C(=O)C(C)(C)C)cc1	1.3	i	-4	-1	-0.1	23	-2%	2.3	.
O=C(NC1CC2CCCC(C1)N2CC(=O)N1CCCc2ccccc21)C1CCCCC1 (stereo not drawn)	.	.	.	.	.	1	25%	-3.7	0.73
Cc1cc(C(=O)CN(Cc2ccc(F)cc2)S(=O)(=O)c2ccc3c(c2)OCCO3)c(C)n1C	.	.	.	.	.	-1	3%&-1%	-1.1	0.74
COc1ccccc1/C=C/CN1CCC(Oc2ccc(C(=O)N3CCCCC3)cc2)CC1	10	i	-8	0	2.7	-16	.	2.3	0.71
O=C(Nc1ccc(S(=O)(=O)C(F)F)cc1)c1cccc(S(=O)(=O)N2CCOCC2)c1	.	.	.	.	.	-2	-2%	2.3	0.74
N#C[C@@H]1[C@H](c2ccccc2-c2ccc(F)cc2)[C@H](CO)N1C(=O)NC1CCCCC1	2.0	i	4	-38	2.0	.	.	.	.
COc1ccc(C(=O)Nc2cccc3nc(C)ccc23)c(OC)c1	-14	i	-8	-13	-0.5	-3	.	1.6	0.65
COc1cc(C)ccc1Oc1nc(-c2ccccc2O)nc2ccccc12	-2.6	i	7	7	-0.4	-10	-4%	-2.0	0.68
Fc1cccc(-c2csc(-c3ccno3)n2)c1	-0.3	i	4	-4	3.5	-8	-9%	2.3	0.64
Cc1onc(-c2ccccc2)c1C(=O)NC(=S)NNC(=O)c1ccco1	-1.8	i	-54	-74	-14	17	-15%	0.1	0.68
O=c1cc(CO)oc(C(Nc2ccccn2)c2ccc(F)cc2)c1O (stereo not drawn)	.	.	.	.	.	98*	86µM*	-0.6	0.65
CCOc1ccc(NC(=S)NCc2nc3ccccc3[nH]2)cc1	1.4	i	-22	-19	-1.4	-4	-14%	-1.6	0.56
O=C(NC1CC1)c1ccc2sc([C@@H]3O[C@H](CO)[C@H](O)[C@H](O)[C@H]3O)nc2c1	-1.9	i	6	15	-0.3	.	.	2.6	.
CC(=O)C1=C(O)C(=Cc2ccccc2)OC1=O	-0.1	i	22	-16	20	.	-4%	23	.
CCCC(c1nnnn1CCc1ccccc1)N1CCN(C(=O)c2ccco2)CC1 (stereo not drawn)	.	.	.	.	.	3	5%	2.1	0.73
COc1ccc(S(=O)(=O)N2CCC(c3cc(-c4cccc5ccccc45)n[nH]3)CC2)cc1	.	.	.	.	.	.	-5%	1.4	0.76
O=C(C1CC1)N1CCN=C1SCc1ccc(F)cc1	-1.1	i	1	5	0.4	100*	15%	2.1	0.65
NNC(=O)c1ccc(OCC2CC(c3ccc(Cl)cc3)=NO2)cc1 (stereo not drawn)	-3.7	i	.	.	.	-15	.	-4.0	0.6
O=C(NCCCN1CCOCC1)c1ccc2c(c1)N(Cc1ccccc1)C(=O)c1ccccc1S2	-0.7	i	0	-10	14	1	-8%	0.5	0.69
C[C@H]1CN([C@@H](C)CO)C(=O)c2cccc(NC(=O)C3CCCCC3)c2O[C@@H]1CN(C)C(=O)Nc1ccc(F)cc1	-2.5	i	0	-6	-3.3	.	.	.	.
COc1ccc(N(CC(=O)N2CCN(Cc3ccccc3)CC2)S(C)(=O)=O)cc1OC	2.1	i	20	9	-0.6	-1	?	2.0	0.7
C[C@H]1CN([C@@H](C)CO)C(=O)Cc2cc(NC(=O)Nc3ccc(C(F)(F)F)cc3)ccc2O[C@@H]1CN(C)Cc1ccc(C(=O)Nc2ccccc2N)cc1	-7.1	i	3	1	1.5	.	.	.	.
C#CCNC(=O)C1CCN(c2cc(C)nc(-c3ccccc3)n2)CC1	0.3	i	5	-10	-4.5	.	-12%	-0.2	0.68
CC(C)(C)NC(=O)COC(=O)c1ccc(NC(=O)CC#N)cc1	-0.4	i	15	18	4.1	99*	-2%	3.4	0.69
C[C@@H]1CN([C@H](C)CO)C(=O)c2cc(NC(=O)C3CC3)ccc2O[C@@H]1CN(C)S(=O)(=O)c1cccs1	-1.1	i	0	0	-0.3	.	.	.	.
CCOC(=O)C1=CCN(S(=O)(=O)c2ccccc2Br)C1c1ccccc1 (stereo not drawn)	-3.8	i	-18	-52	4.1	.	.	2.2	.
COc1ccc(/C=N/NC(=O)c2ccccc2F)cc1CN1CCN(c2ccc(F)cc2)CC1	.	.	.	.	.	36	?	2.0	.
CO[C@@H]1CN(C)C(=O)c2cc(NC(=O)C3CCC3)ccc2OC[C@@H](C)N(Cc2nccs2)C[C@@H]1C	-0.2	i	-3	4	-2.8	.	.	.	.
Clc1ccc(COn2ccnc2)cc1Cl	-0.3	i	-13	-21	-5.1	.	2%	3.5	0.67
COc1cccc(CN2CCNC(=O)C2CC(=O)NCc2cn3cccc(C)c3n2)c1OC (stereo not drawn)	-0.5	i	13	11	2.0	-3	-3%	1.6	0.67

Three compounds out of the list above, ordered by the number in Vif TR-FRET, descending:
| Compound | Vif TR-FRET |
| --- | --- |
| NC(=O)c1ccc(NC(=O)COC(=O)c2cc(S(=O)(=O)N3CCOCC3)ccc2N2CCCCC2)cc1 | -1% |
| CCN(CC(=O)Nc1ccccc1C(F)(F)F)C(=O)Cn1c(=O)cnc2ccccc21 | -3% |
| COc1ccc(NC(=O)CN2CCN(CC(=O)Nc3ccccc3OC)CC2)c(OC)c1 | -5% |

Already shown: an excerpt of the list.
SMILES	MLL AF4-AF9 inh	FGF22 binding	Ecoli rRNA inh	Ecoli rRNA inh OD600	Ecoli rRNA inh RFP	ALR H2O2 inh	Vif TR-FRET	HNF4A DNA FP	E coli growth
Cc1cc(C(=O)CN(Cc2ccc(F)cc2)S(=O)(=O)c2ccc3c(c2)OCCO3)c(C)n1C	.	.	.	.	.	-1	3%&-1%	-1.1	0.74
COc1ccccc1/C=C/CN1CCC(Oc2ccc(C(=O)N3CCCCC3)cc2)CC1	10	i	-8	0	2.7	-16	.	2.3	0.71
O=C(Nc1ccc(S(=O)(=O)C(F)F)cc1)c1cccc(S(=O)(=O)N2CCOCC2)c1	.	.	.	.	.	-2	-2%	2.3	0.74
N#C[C@@H]1[C@H](c2ccccc2-c2ccc(F)cc2)[C@H](CO)N1C(=O)NC1CCCCC1	2.0	i	4	-38	2.0	.	.	.	.

Following part:
SMILES	MLL AF4-AF9 inh	FGF22 binding	Ecoli rRNA inh	Ecoli rRNA inh OD600	Ecoli rRNA inh RFP	ALR H2O2 inh	Vif TR-FRET	HNF4A DNA FP	E coli growth
CN(C)C(=O)C[C@H]1C[C@@H]2c3cc(NC(=O)NC4CCCCC4)ccc3O[C@@H]2[C@@H](CO)O1	-1.9	i	-3	2	-1.0	.	.	.	.
Nc1cc(Cl)ccc1Oc1ccccc1	.	.	.	.	.	-10	-1%	-0.9	0.63
O=S(=O)(c1c(F)cccc1F)N(CCc1ccc(F)cc1)C[C@@H](O)COCc1ccccc1	-2.9	i	-7	-28	-1.7	.	.	-2.3	.
CCc1cc(C(=O)NNC(=S)Nc2cc(C)ccc2C)cs1	.	.	.	.	.	21	6%	-1.0	0.73

Assay outcomes: PubChem BioAssay, several laboratories

These rows are one share of the data (hit frequency here may not be typical).
